From PubChem
LANA-H2A inh: blocks KSHV LANA binding to histone H2A/H2B | hit rate 0.6% among 320,000 | inhibition, % (test concentration not listed) | cell-free LANA-H2A/H2B peptide, fluorescence polarization | AID 2629 | Q9QR71; in the data active means inhibition mostly above about 10%, no sharp cut-off; inactive means mostly below about 6.7%;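 further: stock transfer was 7.5 nL into about 10 µL; 0% = median of vehicle wells and 100% = median of positive control wells; one replicate is shown; the record names a cut of 25% in any replicate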
Target sequence (Q9QR71 whole entry, looked up): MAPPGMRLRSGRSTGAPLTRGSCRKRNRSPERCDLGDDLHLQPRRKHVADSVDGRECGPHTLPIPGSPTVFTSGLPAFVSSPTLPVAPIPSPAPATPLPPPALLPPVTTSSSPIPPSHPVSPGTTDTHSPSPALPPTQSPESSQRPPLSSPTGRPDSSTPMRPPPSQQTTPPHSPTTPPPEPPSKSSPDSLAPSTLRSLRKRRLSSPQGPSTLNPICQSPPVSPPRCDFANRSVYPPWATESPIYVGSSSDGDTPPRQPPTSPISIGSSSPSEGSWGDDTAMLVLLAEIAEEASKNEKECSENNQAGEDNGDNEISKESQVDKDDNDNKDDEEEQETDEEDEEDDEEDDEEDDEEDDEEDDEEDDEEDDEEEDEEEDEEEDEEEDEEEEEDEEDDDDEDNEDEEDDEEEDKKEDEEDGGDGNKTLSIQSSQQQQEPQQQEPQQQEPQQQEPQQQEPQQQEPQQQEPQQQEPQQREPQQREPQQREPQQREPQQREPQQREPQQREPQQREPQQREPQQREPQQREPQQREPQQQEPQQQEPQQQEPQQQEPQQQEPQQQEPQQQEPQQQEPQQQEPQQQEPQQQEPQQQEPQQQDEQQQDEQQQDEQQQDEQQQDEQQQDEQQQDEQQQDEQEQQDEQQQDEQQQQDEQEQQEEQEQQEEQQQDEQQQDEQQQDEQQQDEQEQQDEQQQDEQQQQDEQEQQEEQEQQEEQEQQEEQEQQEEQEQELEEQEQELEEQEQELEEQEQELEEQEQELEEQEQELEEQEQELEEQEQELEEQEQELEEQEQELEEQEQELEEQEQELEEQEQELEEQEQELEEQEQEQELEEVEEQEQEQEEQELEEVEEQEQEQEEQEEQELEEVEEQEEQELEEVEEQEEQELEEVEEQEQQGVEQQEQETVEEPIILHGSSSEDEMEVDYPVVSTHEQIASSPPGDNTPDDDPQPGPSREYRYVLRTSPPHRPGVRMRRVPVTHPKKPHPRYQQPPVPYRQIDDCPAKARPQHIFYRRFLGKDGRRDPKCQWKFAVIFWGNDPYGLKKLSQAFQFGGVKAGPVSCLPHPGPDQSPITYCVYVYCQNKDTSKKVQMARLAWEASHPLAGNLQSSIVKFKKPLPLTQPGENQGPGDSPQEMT
Vif TR-FRET: inhibitors of Vif binding to APOBEC3G peptide, primary screen, biochemical, TR-FRET, GST-Vif 1-94, biotin-A3G peptide, dose response retest (AID 1117319); TR-FRET GST-Vif / biotin-A3G peptide binding; higher % means a stronger effect; test concentration not given here; strong numbers were not always called active; hit rate 0.57% among 260,000; inhibition, %, or IC50 in µM where a hit was titrated;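 active means above the screen mean plus three standard deviations and confirmed in dose response; inconclusive means results disagree or hit not tested in dose response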;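 further: Vif residues 1-94 fused to GST binding biotinylated APOBEC3G peptide 110-148; 0% = full assay without inhibitor and 100% = GST in place of GST-Vif; retest series ran down from 100 µM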
ALR H2O2 inh: blocks human ALR sulfhydryl oxidase activity; inhibition, % (no concentration beside the values); purified ALR, DTT oxidation, H2O2 HRP-luminol luminescence; AID 485317; hit rate 3.8% among 290,000; P55789;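 active means mean and each replicate at 75% or more; inconclusive means only one of the two met; inactive means neither met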;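 further: stock transfer was 7.5 nL into about 7.5 µL; 0% = neutral wells and 100% = wells with inactivated enzyme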
Beta2AR agonist: agonists of human beta-2 adrenergic receptor inducing internalization; Am2.2-beta2AR cells, FAP receptor internalization, flow cytometry; reference of the scale not given here; AID 504454; P07550; hit rate 0.43% among 340,000; response, % (test concentration not listed);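 active means response above a set limit, near 3 SD of response in nonfluorescent compounds, cut at about 42% in these data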;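 further: stock transfer was 100 nL into about 11 µL; a reference agonist was the positive control; negative values mostly stem from fluorescent compounds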
Calb FLC: C. albicans growth modulation with fluconazole. C. albicans CaCi-2 (fluconazole-resistant clinical isolate) + fluconazole, Alamar Blue growth, 48 h. growth inhibition, % (concentration not given with the values). hit rate 0.57% among 300,000. AID 1979;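 active means most replicates above 75%; inconclusive means exactly half above 75%; inactive means most below 75%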;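 further: all wells also contain fluconazole at 8 µg/ml as a sub-toxic cotreatment; 0% = median of DMSO wells and 100% = median of geldanamycin control wells; wells of about 8 µL received 7.5 nL stock; the first replicate is given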
RanGTP-Imp inh: disruptors of Ran-importin-beta complex formation – biochemical, FRET, CFP-Ran, YFP-importin-beta, homogeneous, primary screen; hit rate 1.1% among 300,000; AID 2216; inhibition, % (test concentration not listed); cell-free CFP-Ran/YFP-importin-beta FRET ratio;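 active means most replicates above 15%; inconclusive means exactly half above 15%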;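 further: 0% = DMSO wells and 100% = Ran loaded with GDP instead of GTP; wells of about 40 µL received 100 nL stock; the first replicate is given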
HNF4A DNA FP: change in binding of human HNF4 alpha to DNA; HNF4a-FITC DNA binding, fluorescence polarization, 1 h; hit rate 0.3% among 360,000; P41235; activity change, % at 10 µM; in the data active means activity change above about 30%, passing the limit was not always enough;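 further: controls were the assay level and a saturating level of protein; the project sought stronger binding though the title names inhibitors; some compounds called inactive have numbers as strong as hits; positive values seem to mean higher polarization but the record does not say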
* = called active by the depositor; u = inconclusive; x = no result given.

No.	canonical_smiles	LANA-H2A inh	Beta2AR agonist	Vif TR-FRET	ALR H2O2 inh	RanGTP-Imp inh	HNF4A DNA FP	Calb FLC
1	CCN(CC)S(=O)(=O)c1cc(NC(=O)COC(=O)Cn2cnc3ccccc32)ccc1C	-3.7	12.2	-10.9%	-3.3	7.4	-1.7	1.0
2	C/C(=N\NC(=O)c1cc(C)oc1C)c1ccc(N2CCOCC2)cc1	0.9	2.3	-1.9%	82.6*	-2.5	2.5	-5.1
3	CC1CCC(NC(=O)C2c3ccccc3C(=O)N2CCCN2CCOCC2)CC1 (centres undefined)	-4.8	3.9	14.6%	-5.4	2.3	5.3	-43.0
4	C=CCN1C(=O)C(O)(CC(=O)c2ccccn2)c2ccccc21 (centres undefined)	0.2	-11.9	21.7%	-2.7	0.0	-2.0	-41.3
5	Brc1cccc(OCCN2CCOCC2)c1	-0.6	-1.0	x	-6.9	u	0.9	1.3
6	Cc1nnc(NC(=O)CSc2nnc(-c3ccoc3C)n2CC(C)C)s1	-0.5	-2.0	-2.1%	-0.7	1.8	0.8	-4.0
7	Cc1ccc2nc(-c3ccc(NC(=O)CCS(=O)(=O)c4ccccc4)cc3)sc2c1	12.5	7.0	x	0.5	3.5	5.8	18.8
8	O=S(=O)(c1cccc(-c2n[nH]c(=S)n2C2CCCC2)c1)N1CCOCC1	-0.6	-1.7	-5.3%	24.7	-2.6	-1.2	16.7
9	C=CCC1(N(C(C)=O)c2ccccc2)CCCCC1	-5.1	3.3	-6.5%	-10.6	-0.2	-0.2	-0.9
10	Cc1ccc2cccc(SCC(=O)NCC#N)c2n1	0.1	-3.7	-14.0%	-5.0	-0.4	-6.5	-11.2
11	COc1ccc(-c2c3c(nc4sc5c(Cl)nc(C)nc5c24)CCC3)cc1	0.7	29.6	2.8%	2.2	0.8	2.6	-8.4
12	NC(=O)c1ncn([C@@H]2O[C@H](CNCc3c(OCc4ccccc4F)ccc4ccccc34)[C@@H](O)[C@H]2O)n1	x	-3.2	-1.8%	x	x	-1.5	x
13	CCOc1ccccc1NC(=O)C(C)SCc1ccccc1 (centres undefined)	-4.9	-1.4	x	-8.2	-2.9	1.4	-1.9
14	O=C(CSc1nc2ccccc2[nH]1)c1ccc2c(c1)OCO2	0.1	-6.2	23.9%	7.4	x	-1.4	7.8
15	O=C(N/N=C/c1ccc(OCc2ccccc2)cc1)c1cc[n+](Cc2ccccc2)cc1	3.5	-7.0	x	-21.5	3.1	1.5	5.2
16	CC(=O)NCc1nc2ccccc2n1Cc1ccccc1F	-0.9	9.7	7.5%	-20.8	-3.6	0.1	-0.7
17	CC1CCCCC1N=C1NC(C)(C)CS1 (centres undefined)	-3.1	2.5	u	-4.1	x	2.7	13.6
18	CC(C)(C)OC(=O)C[C@H]1C/C=C\C[C@@H](CC(=O)N[C@H](CO)Cc2ccccc2)C(=O)NCCOC1=O	1.0	-1.2	x	-0.5	x	-3.7	x
19	O=C(Oc1ccccc1)n1c(=S)oc2ccccc21	-2.0	10.4	-6.6%	14.1	1.1	-0.3	-0.8
20	COc1ccccc1C(CCN(Cc1cccs1)C(C)=O)c1ccco1 (centres undefined)	-4.3	6.2	5.7%	7.4	-1.6	8.7	-4.9
21	Nn1c(SCC(=O)N2CCCC2=O)nnc1-c1cccs1	x	-2.5	-5.5%	x	u	-3.3	-4.9
22	CCNC(=O)c1c(C)[nH]c(C(=O)OCC)c1C	0.3	3.0	3.4%	2.8	0.0	3.4	-3.2
23	O=C(NC1CC1)c1ccc2c(c1)C1C3CCC(C3)C1C(c1ccccc1)N2 (centres undefined)	1.7	1.3	3.5%	3.2	-6.3	1.6	1.0
24	CC(Sc1nc(N)c(NC(=O)c2ccc(Br)o2)c(=O)[nH]1)C(=O)O (centres undefined)	-1.4	-6.5	0.0%	-0.7	-1.2	6.5	-2.2
25	CC(C)Cc1cc(C(=O)NCCN2CCOCC2)no1	2.3	2.8	0.7%	-2.1	-0.9	1.5	-0.6
26	Cc1cc(C)nc(NS(=O)(=O)c2ccc(N/C=C/C(=O)c3ccc(Cl)c(Cl)c3)cc2)n1	2.3	-1.8	32.2%	34.8	5.8	-1.8	-25.3
27	O=C(Nc1ncccn1)c1ccc(C(F)(F)F)cc1	-7.2	-0.4	-1.8%	97.2*	0.0	-2.0	4.7
28	CC(=O)Oc1ccccc1C1=NN(C(C)=O)C(c2ccccc2)C1 (centres undefined)	6.2	14.9	2.9%	0.6	4.2	0.1	8.6
29	Cc1cc(/C=C2\SC(=Nc3ccccc3)NC2=O)c(C)n1-c1ccc(S(N)(=O)=O)cc1	-7.1	18.3	4.1%	-1.1	20.8*	11.5	1.9
30	CC(C)CN1CCC(CN2CCNC(=O)C2=O)CC1	x	-3.8	1.7%	x	x	-1.6	x
31	C/C(=N\NC(=O)c1nnn(-c2nonc2N)c1CN1CCCCCC1)c1ccc(Br)cc1	0.2	-2.8	x	-5.3	-0.7	2.0	-15.4
32	CCCCn1c(SCC(=O)Nc2ccc(C)c(S(=O)(=O)N3CCOCC3)c2)nnc1C(CC)N(C)C (centres undefined)	0.8	-3.7	-3.4%	-2.7	-1.6	2.4	10.2
33	Cc1ccc(C(=O)N2CCN(Cc3ccc4c(c3)OCO4)CC2)cc1[N+](=O)[O-]	-3.8	-0.6	0.7%	-1.4	2.0	2.1	-4.0
34	N#CC(C(=O)NCc1ccco1)c1nc2ccccc2nc1N1CCOCC1 (centres undefined)	6.1	-0.8	51.7µM*	12.4	u	1.5	2.0
35	N#Cc1cn(CC(=O)NCC2CCCO2)c2ccccc12 (centres undefined)	1.2	-0.5	0.0%	-3.6	2.3	-1.5	-1.5
36	COc1ccc(CC(=O)OCC(=O)Nc2ncc(Cl)cc2Cl)cc1	-3.9	-2.8	30.3%	-4.3	3.1	0.2	-3.4
37	Cc1cccc2c(CC(=O)Nc3ccccc3)noc12	0.6	2.5	20.8%	-3.1	8.1	2.1	-15.8
38	O=C(COC(=O)CCCSc1nc2ccccc2[nH]1)NC(=O)NC1CCCC1	-5.9	-3.2	10.3%	-4.1	0.9	0.4	2.4
39	Cc1ccc(-c2noc(CN(C)C(=O)Nc3ccc(F)cc3)n2)cc1	-2.4	-0.9	7.7%	-4.0	2.1	-0.9	-9.4
40	C=CCn1c(SCC(=O)Nc2cc(C)on2)nnc1-c1ccccc1F	2.8	0.1	-2.5%	1.5	x	1.2	x
41	CCC1SC2=NC(C)=C(C(=O)OCCOC)C(c3ccc(C(=O)OC)cc3)N2C1=O (centres undefined)	1.4	-0.9	10.2%	-4.5	-2.7	-0.8	3.3
42	CCN(CC)S(=O)(=O)c1ccc(N/N=C/c2cccnc2)nc1	2.4	1.3	u	-3.9	3.8	0.2	0.6
43	CC(=O)c1c(C)[nH]c(C(=O)OC2CCOC2=O)c1C (centres undefined)	-1.5	4.9	24.0%	x	3.4	-0.4	-4.6
44	O=C(N/N=C/c1cccc(F)c1)c1c(O)c2c([nH]c1=O)CCCC2	-5.9	-17.4	19.7%	-8.0	-5.2	8.2	2.0
45	CCNC(=S)NNC(=O)c1ccccn1	-3.7	-0.4	17.6%	15.0	4.5	3.3	2.6
46	CC1CCN(C(=O)Cn2c(=O)n(Cc3ccc4c(c3)OCO4)c(=O)c3ccccc32)CC1	3.0	-8.2	5.5%	0.7	2.5	-3.5	-5.2
47	CSC1=NCCN1C(=O)c1ccc(S(=O)(=O)N2CCCCC2)cc1	-1.7	13.4	-1.1%	-1.5	2.6	-2.7	-3.5
48	CSCC[C@H](NC(=O)OC(C)(C)C)c1nnc(SCC=C(C)C)o1	-1.1	-0.3	3.5%	-1.2	-2.8	2.2	22.1
49	Cc1ccsc1C(=O)NC1CCCCC1C (centres undefined)	3.1	1.4	-2.0%	-1.3	x	0.6	x
50	COc1ccc(NC(=O)CO/N=C(\C)c2cccs2)cc1	0.6	-0.5	3.5%	-8.9	2.4	1.9	u
51	CCN(C(=O)C1CCCN(c2ncnc3c2nc2n3CCCCC2)C1)c1cccc(Cl)c1 (centres undefined)	11.0	2.9	x	-3.2	1.5	0.7	-6.6
52	O=C(O)c1ccc(C2NCC(c3ccccc3Cl)c3c2[nH]c2ccccc32)cc1 (centres undefined)	-6.4	-1.4	-1.3%	52.8	3.4	-3.1	49.7
53	CCCCN(C(=O)CN(C)CC(=O)Nc1cccc(OC)c1)c1c(N)n(CCCC)c(=O)[nH]c1=O	-4.4	0.0	x	x	x	2.3	x
54	CCOC(=O)c1cc(-c2ccc(OC)cc2)nc2c1c(C)nn2CCC#N	7.3	3.6	15.9%	-6.4	-2.0	-1.4	-3.5
55	Cc1cc2ncn(S(=O)(=O)c3ccc(S(=O)(=O)N4CCCCCC4)cc3)c2cc1C	-0.3	-1.7	x	3.3	1.1	-3.0	-2.9
56	Cn1c2ccccc2c2ncn(CCN3CCOCC3)c(=O)c21	-1.8	-12.8	5.5%	-13.7	-0.9	3.2	6.1
57	O=C(/C=C/c1ccc(Br)cc1)NC(=S)NNC(=O)c1ccco1	-5.7	2.9	x	98.5*	u	-4.1	4.1
58	COc1cc(C(=O)NC(=S)Nc2ccc(Cl)c(C(=O)O)c2)cc(OC)c1OC	-2.0	-4.5	-5.9%	61.7	-11.5	-0.6	-1.3
59	CCOC(=O)CSc1nnc(CNC(=O)c2cccc(C)c2)n1-c1ccccc1OC	-0.2	5.8	2.8%	-2.5	-0.3	1.4	-2.4
60	CCOc1ccc(OCC)c(NC(=O)C2CCCN(S(=O)(=O)c3ccc(C)cc3)C2)c1 (centres undefined)	-8.7	0.0	1.3%	-11.1	1.1	0.8	-4.3

Later entries.
No.	canonical_smiles	LANA-H2A inh	Beta2AR agonist	Vif TR-FRET	ALR H2O2 inh	RanGTP-Imp inh	HNF4A DNA FP	Calb FLC
61	NNc1nc(-c2ccccc2)nc(-c2ccccc2)c1Br	6.9	9.0	x	-0.3	0.6	-3.4	0.6
62	Cc1csc(NC(=O)CSc2nncc(=O)n2N)n1	-4.9	6.6	x	98.5*	-0.6	3.4	-13.0
63	COc1ccc2c(c1)c(=O)oc1c(C)c(OCC(=O)N3CCc4ccccc4C3)ccc12	-0.6	-5.5	0.8%	-8.6	-0.9	-9.3	0.3
64	COc1cccc(CC(=O)NNC(=O)c2ccc3c(c2)OCO3)c1	6.2	0.5	2.1%	-2.5	1.8	-0.1	-3.3
65	CCCN1CCN(C(=O)C2CCN(S(=O)(=O)c3ccc4c(c3)oc(=O)n4C)CC2)CC1	x	-17.2	-0.5%	x	x	-1.6	x
66	CN(CCCCCC(=O)/C=N/O)Cc1ccccc1	0.3	8.2	x	-6.0	3.4	-0.1	-12.0
